Vaccinia inh: Vaccinia orthopox stage-specific inhibition. actives 0.01% (n = 89,000). activity change (mCherry), % (no concentration beside the values). AID 1053133. Vaccinia-infected cells, mCherry/Venus stage reporter fluorescence; active compounds read low; some inactives read as strong as hits;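 active means mCherry past -33% and 40 or more points under the early reporter, replicates agreeing; inconclusive means past -33% without that gap or agreement; tested in A549 cells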;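 further: scaled between vehicle wells and reference inhibitor wells; 23 nL library stock went into each well; one replicate is shown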
Vaccinia inh Venus: recorded beside Vaccinia inh, whose call it bears; activity change (Venus), %; measured here: Venus reporter, other viral stage;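 negative = less Venus signal; first of two replicates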
* hit, by the source's call; u = inconclusive; x = not tested or not shown; & = joins results of further samples. Some of the compounds tested; rates above refer to the full screens.

| SMILES | Vaccinia inh | Vaccinia inh Venus |
| --- | --- | --- |
| COc1cccc(CNC(=O)C[C@@H]2CC[C@@H](NC(C)=O)[C@@H](CO)O2)c1 | 2 | 2 |
| C[C@@H]1CCCCO[C@H](CN(C)CC2CCCCC2)[C@H](C)CN([C@@H](C)CO)C(=O)c2cc(NC(=O)Nc3ccc4c(c3)OCO4)ccc2O1 | u | x |
| C[C@@H]1CCCCO[C@@H](CN(C)C(=O)C2CCCCC2)[C@@H](C)CN([C@@H](C)CO)C(=O)c2cc(NC(=O)Nc3ccc(F)cc3)ccc2O1 | -24 | -17 |
| C[C@@H]1CN([C@@H](C)CO)S(=O)(=O)c2ccc(C3=CCCCC3)cc2O[C@@H]1CN(C)C(=O)c1ccncc1 | -15 | -10 |
| C[C@@H]1CN([C@H](C)CO)C(=O)Cc2cc(N(C)C)ccc2O[C@H]1CN(C)S(=O)(=O)c1ccc(F)cc1 | 14 | 9 |
| C[C@@H]1CCCCO[C@H](CN(C)S(=O)(=O)c2ccc(F)cc2)[C@H](C)CN([C@H](C)CO)C(=O)c2cc(NC(=O)NC3CCCCC3)ccc2O1 | -16 | 2 |
| COc1cccc(-c2ccc3c(c2)[C@H]2[C@H](CCN2C(=O)NC2CCCC2)[C@H](CO)N3C)c1 | -2 | 0 |
| O=C(NCc1ccccc1F)[C@@H]1[C@@H](CO)[C@@H]2Cn3c(cccc3=O)[C@@H]2N1C(=O)CC1CC1 | 0 | -8 |
| C[C@H](CO)N1C[C@H](C)[C@@H](CN(C)C(=O)Nc2ccc(F)cc2)Oc2ccc(NC(=O)CCN3CCOCC3)cc2C1=O | 14 | 5 |
| O=C(C1CCCCC1)N1CC2(C1)[C@H](c1ccccc1)[C@@H](CO)N2Cc1nccs1 | 1 | -1 |
| O=C(C[C@H]1C=C[C@@H](NC(=O)c2ccccc2)[C@@H](CO)O1)Nc1ccc(-c2ccccc2)cc1 | -29 | -22 |
| C[C@H]1CN([C@@H](C)CO)C(=O)c2cccc(NC(=O)Nc3ccc(C(F)(F)F)cc3)c2O[C@@H]1CN(C)Cc1ccc(-c2ccccc2)cc1 | -5 | -8 |
| Cc1noc(C)c1NC(=O)N(C)C[C@H]1Oc2ccc(NC(=O)Nc3cccc4ccccc34)cc2C(=O)N([C@@H](C)CO)C[C@H]1C | 15 | 10 |
| O=C(NCC[C@@H]1CC[C@H](NC(=O)C2CC2)[C@@H](CO)O1)c1ccc(F)cc1 | -2 | -2 |
| C[C@@H]1CN([C@@H](C)CO)C(=O)c2cc(C#Cc3ccccc3F)cnc2O[C@H]1CN(C)C(=O)c1ccc2c(c1)OCO2 | u | x |
| Cc1noc(C)c1NC(=O)N(C)C[C@@H]1Oc2ccc(NC(=O)Cc3cn(C)c4ccccc34)cc2CC(=O)N([C@@H](C)CO)C[C@@H]1C | 3 | -3 |
| CN(C)C(=O)C[C@@H]1CC[C@@H](NC(=O)c2ccc(F)cc2)[C@@H](CO)O1 | 3 | 14 |
| O=C(Cc1ccncc1)Nc1ccc2c(c1)[C@@H]1C[C@@H](CC(=O)N3CCc4ccccc4C3)O[C@@H](CO)[C@@H]1O2 | 6 | 4 |
| COC(=O)C[C@@H]1CC[C@H]2[C@@H](COc3ccc(NC(=O)c4ccccc4F)cc3C(=O)N2C)O1 | 5 | 11 |
| CC(C)NC(=O)Nc1ccc2c(c1)C(=O)N([C@@H](C)CO)C[C@@H](C)[C@@H](CN(C)C(=O)c1ccccc1)OCCCC[C@@H](C)O2 | 3 | 4 |
| CCNC(=O)C[C@H]1CC[C@@H]2[C@@H](COc3ccc(NC(=O)Nc4c(C)noc4C)cc3C(=O)N2C)O1 | 10 | 8 |
| CC(=O)N1[C@@H]2CN(S(=O)(=O)c3ccccc3C)c3ccccc3[C@@H]2[C@@H]1CO | 8 | 4 |
| COc1cccc(S(=O)(=O)Nc2ccc3c(c2)[C@@H]2C[C@@H](CC(=O)NC4CCCCC4)O[C@@H](CO)[C@@H]2O3)c1 | -1 | 3 |
| CNC[C@H]1Oc2ccc(NC(=O)C3CC3)cc2C(=O)N([C@@H](C)CO)C[C@H]1C | 7 | 4 |
| Cc1ccc(-c2ccc3c(c2)O[C@@H](CN(C)C(=O)Nc2ccccc2)[C@H](C)CN([C@H](C)CO)S3(=O)=O)cc1 | u | x |
| C[C@H]1CCCCO[C@H](CN(C)C(=O)Nc2ccc(F)cc2)[C@@H](C)CN([C@@H](C)CO)C(=O)c2cc(NS(=O)(=O)c3cn(C)cn3)ccc2O1 | 17 | 9 |
| COc1ccc(NC(=O)N(C)C[C@@H]2Oc3ccc(NC(=O)C4CC4)cc3CC(=O)N([C@@H](C)CO)C[C@H]2C)cc1 | -1 | -2 |
| C[C@@H]1CCCCO[C@H](CN(C)C(=O)c2ccccc2)[C@@H](C)CN([C@@H](C)CO)C(=O)c2cc(NS(=O)(=O)c3ccccc3)ccc2O1 | -6 | -6 |
| C[C@H]1CN([C@@H](C)CO)S(=O)(=O)c2ccc(C#CCC3CCCC3)cc2O[C@H]1CN(C)C(=O)c1ccccn1 | u | x |
| CCC(=O)Nc1ccc2c(c1)C(=O)N(C)C[C@@H](OC)[C@H](C)CN(C(=O)c1ccccn1)[C@H](C)CO2 | 5 | -6 |

Overlap with the part before: 2 compounds, then new ones.
| SMILES | Vaccinia inh | Vaccinia inh Venus |
| --- | --- | --- |
| C[C@H]1CN([C@@H](C)CO)S(=O)(=O)c2ccc(C#CCC3CCCC3)cc2O[C@H]1CN(C)C(=O)c1ccccn1 | u | x |
| CCC(=O)Nc1ccc2c(c1)C(=O)N(C)C[C@@H](OC)[C@H](C)CN(C(=O)c1ccccn1)[C@H](C)CO2 | 5 | -6 |
| CCc1csc(N2[C@H](C#N)[C@H](c3ccccc3C3=CCCC3)[C@H]2CO)n1 | -3 | 1 |
| C[C@@H]1CN([C@H](C)CO)C(=O)c2cc(NS(=O)(=O)c3ccc(Cl)cc3)ccc2O[C@H]1CN(C)C(=O)Nc1cccc2ccccc12 | 26 | 10 |
| C[C@@H]1CN([C@@H](C)CO)C(=O)Cc2cc(NS(=O)(=O)c3ccccc3)ccc2O[C@H]1CN(C)S(=O)(=O)c1cn(C)cn1 | 18 | 13 |
| CN1C(=O)c2cc(NC(=O)C3CCC3)ccc2OC[C@@H]2O[C@H](CC(=O)NCc3ccccc3F)CC[C@@H]21 | -18 | -18 |
| Cc1ccc(S(=O)(=O)N(C)C[C@H]2Oc3ccc(NC(=O)Nc4ccc(F)cc4)cc3CC(=O)N([C@H](C)CO)C[C@@H]2C)cc1 | -14 | -13 |
| O=C(NCC[C@@H]1CC[C@H](NC(=O)C2CCC2)[C@H](CO)O1)c1cnccn1 | -5 | 0 |
| C[C@H]1CN([C@@H](C)CO)C(=O)c2cc(-c3ccccc3)cnc2O[C@@H]1CN(C)C | 14 | 7 |
| C[C@@H]1CN([C@H](C)CO)C(=O)c2c(c3ccccc3n2C)-c2ccccc2CO[C@@H]1CN(C)C(=O)N[C@H](C)c1ccccc1 | u | x |
| COC(=O)[C@@H]1[C@@H](CO)[C@@H]2Cn3c(ccc(C4=CCCC4)c3=O)[C@@H]2N1Cc1ccccn1 | 4 | 13 |
| Cc1ccccc1S(=O)(=O)N1CC[C@@H]2[C@H]1c1cc(-c3ccc(F)cc3)ccc1N(C)[C@H]2CO | u | x |
| CCCC(=O)N1CC2(C1)CN(S(C)(=O)=O)[C@@H](CO)c1c2c2ccc(OC)cc2n1C | 15 | 8 |
| C[C@@H](O)C#Cc1ccc([C@H]2[C@@H](CO)N3CCCCN(S(=O)(=O)Cc4ccccc4)C[C@H]23)cc1 | u | x |
| CN(C)CCCNC(=O)C[C@@H]1C=C[C@@H](NC(=O)Cc2cccnc2)[C@@H](CO)O1 | 6 | 7 |
| C[C@@H]1CN([C@@H](C)CO)C(=O)c2cc(NS(=O)(=O)c3ccc(F)cc3)ccc2O[C@H]1CN(C)C(=O)Nc1ccccc1 | 11 | 7 |
| C[C@H](CO)N1C[C@H](C)[C@@H](CN(C)Cc2ccc(-c3ccccc3)cc2)Oc2c(NS(C)(=O)=O)cccc2C1=O | 18 | 14 |
| CNC[C@@H]1OCCCC[C@@H](C)Oc2ccc(NS(=O)(=O)c3ccc(C)cc3)cc2C(=O)N([C@H](C)CO)C[C@@H]1C | 5 | 5 |
| C[C@H]1CCCCO[C@@H](CN(C)C(=O)Nc2ccc(C(F)(F)F)cc2)[C@@H](C)CN([C@@H](C)CO)C(=O)c2cc(NS(C)(=O)=O)ccc2O1 | u | x |
| COc1ccc(CN(C)C[C@@H]2Oc3ccc(NC(=O)Nc4ccccc4)cc3CC(=O)N([C@@H](C)CO)C[C@H]2C)cc1 | -33 | -21 |
| C[C@@H]1CCCCO[C@H](CN(C)Cc2ccccc2)[C@H](C)CN([C@@H](C)CO)C(=O)c2cc(NC(=O)Nc3ccc(F)cc3)ccc2O1 | u | x |
| O=C(C[C@H]1C[C@H]2c3cc(NC(=O)c4cccnc4)ccc3O[C@H]2[C@@H](CO)O1)NCCN1CCCCC1 | -9 | -12 |
| COc1ccc(S(=O)(=O)N(C)C[C@H]2OCCCC[C@@H](C)Oc3ccc(NS(C)(=O)=O)cc3C(=O)N([C@H](C)CO)C[C@@H]2C)cc1 | 2 | -5 |
| C[C@H](CO)N1C[C@H](C)[C@@H](CN(C)S(=O)(=O)c2cccs2)Oc2c(NC(=O)Nc3ccc(F)cc3)cccc2C1=O | 14 | 5 |
| CC=Cc1ccc2n(c1=O)C[C@@H]1[C@@H](CO)[C@H](C(=O)NCc3ccncc3)N(Cc3ccncc3)[C@H]21 (mixture of isomers) | 1 | 16 |
| COc1ccc(S(=O)(=O)Nc2ccc3c(c2)OC[C@H](C)NC[C@H](C)[C@@H](OC)CN(C)C3=O)cc1 | -7 | 2 |
| Cc1ccc(S(=O)(=O)N(C)C[C@@H]2Oc3ccc(NS(=O)(=O)c4c(C)noc4C)cc3CC(=O)N([C@@H](C)CO)C[C@@H]2C)cc1 | 16 | 11 |
| CNC[C@H]1OCCCC[C@@H](C)Oc2ccc(NS(C)(=O)=O)cc2C(=O)N([C@H](C)CO)C[C@H]1C | 17 | 15 |
| CC(C)CC#Cc1ccc2c(c1)O[C@H](CN(C)C(=O)Cc1ccccn1)[C@H](C)CN([C@H](C)CO)S2(=O)=O | -22 | -23 |
| C[C@@H]1CN([C@@H](C)CO)C(=O)c2cc(Br)cnc2O[C@H]1CN(C)C(=O)c1ccncc1 | 27 | 11 |
| C[C@H](CO)N1C[C@H](C)[C@@H](CN(C)S(=O)(=O)c2ccc(F)cc2)Oc2c(NC(=O)c3nc4ccccc4s3)cccc2C1=O | -1 | 5 |
| COc1ccc(S(=O)(=O)Nc2ccc3c(c2)C(=O)N([C@H](C)CO)C[C@H](C)[C@H](CN(C)C(=O)c2ccncc2)OCCCC[C@H](C)O3)cc1 | 18 | 3 |

The list goes on; the last four above are carried over.
| SMILES | Vaccinia inh | Vaccinia inh Venus |
| --- | --- | --- |
| CC(C)CC#Cc1ccc2c(c1)O[C@H](CN(C)C(=O)Cc1ccccn1)[C@H](C)CN([C@H](C)CO)S2(=O)=O | -22 | -23 |
| C[C@@H]1CN([C@@H](C)CO)C(=O)c2cc(Br)cnc2O[C@H]1CN(C)C(=O)c1ccncc1 | 27 | 11 |
| C[C@H](CO)N1C[C@H](C)[C@@H](CN(C)S(=O)(=O)c2ccc(F)cc2)Oc2c(NC(=O)c3nc4ccccc4s3)cccc2C1=O | -1 | 5 |
| COc1ccc(S(=O)(=O)Nc2ccc3c(c2)C(=O)N([C@H](C)CO)C[C@H](C)[C@H](CN(C)C(=O)c2ccncc2)OCCCC[C@H](C)O3)cc1 | 18 | 3 |
| C[C@H]1CN([C@@H](C)CO)C(=O)c2cc(-c3ccc(F)cc3)cnc2O[C@H]1CN(C)C(=O)Cc1ccccc1 | 7 | 9 |
| COc1ccc(NC(=O)Nc2ccc3c(c2)CC(=O)N([C@@H](C)CO)C[C@@H](C)[C@H](CN(C)CC2CC2)O3)cc1 | -13 | -4 |
| Cc1ccc(S(=O)(=O)N(C)C[C@@H]2OCCCC[C@H](C)Oc3ccc(NS(=O)(=O)c4cn(C)cn4)cc3C(=O)N([C@@H](C)CO)C[C@@H]2C)cc1 | 22 | 16 |
| C[C@H](CO)N1C[C@H](C)[C@@H](CN(C)Cc2ccncc2)Oc2c(NS(C)(=O)=O)cccc2C1=O | 9&-2 | 7&-5 |
| C[C@@H]1CN([C@@H](C)CO)C(=O)Cc2cc(NC(=O)CCN3CCOCC3)ccc2O[C@H]1CN(C)C(=O)Nc1ccc(C(F)(F)F)cc1 | 5 | 2 |
| O=C(O)[C@@H]1[C@@H](CO)[C@@H]2Cn3c(ccc(-c4cncnc4)c3=O)[C@@H]2N1C(=O)C1CCCC1 | 6 | 1 |
| O=C(C1CCOCC1)N1CC[C@H]2[C@H](CO)Nc3ccc(-c4ccc(F)cc4)cc3[C@H]21 | -2 | 0 |
| Cc1ccc(S(=O)(=O)N[C@H]2C=C[C@@H](CC(=O)NCc3ccncn3)O[C@H]2CO)cc1 | 2 | 7 |
| COc1ccccc1NC(=O)N1C[C@H](O)COC[C@@H]2O[C@H](CC(=O)N3CCC(Cc4ccccc4)CC3)CC[C@H]21 | u | x |
| C[C@@H]1CN([C@@H](C)CO)C(=O)c2cc(/C=C/c3ccccc3)cnc2O[C@H]1CN(C)C(=O)C1CCC1 | -19 | -15 |
| C[C@@H]1CN([C@@H](C)CO)C(=O)c2cc(NS(=O)(=O)c3ccc(Cl)cc3)ccc2O[C@@H]1CN(C)CC1CCCCC1 | -4 | 6 |
| O=C(c1ccccc1F)N1C[C@H]2[C@@H](c3ccccc31)[C@@H](CO)N2C(=O)c1ccccc1 | 2 | 2 |
| COc1ccc(CN(C)C[C@H]2OCCCC[C@H](C)Oc3ccc(NS(=O)(=O)c4ccc(OC)cc4)cc3C(=O)N([C@@H](C)CO)C[C@H]2C)cc1 | u | x |
| COc1ccc(S(=O)(=O)N(C)C[C@H]2OCCCC[C@@H](C)Oc3ccc(NS(=O)(=O)c4cccs4)cc3C(=O)N([C@H](C)CO)C[C@H]2C)cc1 | u | x |
